A1 inhib: inducers of caspase activity in MEF A1-2A-BIM cells, primary screen, A1 inhibitor project, cell-based, CaspaseGlo luminescence. caspase-Glo luminescence, 3 h; percent of clofoctol signal, DMSO as zero. caspase activation, % (concentration not given with the values). 0.51% of 21,000 active. AID 2241, 2010;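 active = most replicate scores above 10, or exactly half above 10 with mean activity above 10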;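 also: effector caspase 3 and 7 activity cleaving a DEVD luciferin substrate; 50 nL library stock added to about 30 µL; numbers are from one replicate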
BJeLR viab HTS: BJeLR cell viability loss, primary screen, luminescence, CellTiterGlo ATP | BJeLR fibroblasts viability, 48 h; HRASV12, hTERT and SV40 LT/ST transformed | viability loss activity score, % (no concentration beside the values) | 0.64% of 30,000 active | AID 2275, 2010; in the data active = viability loss activity score above about 50%; about a fifth of its hits are not listed in these tables;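 also: higher score means fewer live cells and less ATP luminescence; stock transfer was 50 or 100 nL into about 30 µL; 0% = vehicle wells and 100% = a reference killing control; one replicate is shown; the record names a cut of 85%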
* marks the source's active call; other numbers are inactive results; · = not tested or not shown. These rows are one share of the data; the hit share may differ from the screen's.

A first look:
SMILES	A1 inhib	BJeLR viab HTS
COc1ccc(S(=O)(=O)Nc2ccc3c(c2)C(=O)N([C@H](C)CO)C[C@@H](C)[C@H](CN(C)CC2CCCCC2)O3)cc1	-0.8	-1.2
Cc1ccc(S(=O)(=O)N(C)C[C@H]2Oc3ccc(NC(=O)Nc4cccc5ccccc45)cc3C(=O)N([C@@H](C)CO)C[C@H]2C)cc1	0.7	-7.5
Cc1ccc(S(=O)(=O)Nc2cccc3c2O[C@@H](CN(C)Cc2ccccc2)[C@@H](C)CN([C@H](C)CO)C3=O)cc1	·	-5.8
C[C@@H]1CN([C@H](C)CO)C(=O)c2cc(NC(=O)Cn3cnnn3)ccc2O[C@H]1CN(C)S(=O)(=O)c1ccc(Cl)cc1	-1.0	4.5

The listing (from the top)
SMILES	A1 inhib	BJeLR viab HTS
COc1ccc(S(=O)(=O)Nc2ccc3c(c2)C(=O)N([C@H](C)CO)C[C@@H](C)[C@H](CN(C)CC2CCCCC2)O3)cc1	-0.8	-1.2
Cc1ccc(S(=O)(=O)N(C)C[C@H]2Oc3ccc(NC(=O)Nc4cccc5ccccc45)cc3C(=O)N([C@@H](C)CO)C[C@H]2C)cc1	0.7	-7.5
Cc1ccc(S(=O)(=O)Nc2cccc3c2O[C@@H](CN(C)Cc2ccccc2)[C@@H](C)CN([C@H](C)CO)C3=O)cc1	·	-5.8
C[C@@H]1CN([C@H](C)CO)C(=O)c2cc(NC(=O)Cn3cnnn3)ccc2O[C@H]1CN(C)S(=O)(=O)c1ccc(Cl)cc1	-1.0	4.5
C[C@@H]1CN([C@H](C)CO)C(=O)c2cccc(NC(=O)c3ccncc3)c2O[C@H]1CN(C)S(=O)(=O)c1cccs1	·	2.3
C[C@@H]1CN([C@@H](C)CO)C(=O)c2cc(NS(=O)(=O)c3ccc(F)cc3)ccc2O[C@@H]1CN(C)Cc1ccccc1	-0.3	-1.4
CC(C(=O)O)c1ccc(-c2ccccc2)c(F)c1 (stereo not drawn)	-1.3	-7.2
C[C@H](CO)N1C[C@H](C)[C@@H](CN(C)Cc2ccc(C(=O)O)cc2)Oc2ccc(NS(=O)(=O)c3cn(C)cn3)cc2C1=O	0.5	-4.1
CCOC(=O)c1c(CN(C)C)n(-c2ccccc2)c2cc(Br)c(OC)cc12	0.1	7.6
C/C(=C\CC[C@@H](C)[C@H]1CC(OC2OCC(O)C(O)C2O)[C@@]2(C)C3CC[C@H]4C(C)(C)[C@@H](O[C@@H]5OC(CO)C(O)C(O)C5OC5OC(CO)C(O)C(O)C5O)CC[C@@]45C[C@@]35CC(O)[C@]12C)C(=O)OC1OC(CO)C(O)C(O)C1O (stereo partly drawn)	-0.9	-2.4
O=C(Cc1ccccc1)c1ccccc1C(=O)NCc1cccs1	0.5	6.4
O=C(Oc1ccccc1)c1cc(-c2ccccc2)c(C(F)(F)F)s1	-0.5	0.2
C[C@@H]1CN([C@@H](C)CO)C(=O)c2cc(NC(=O)CCCCCC(=O)Nc3ccccc3N)ccc2O[C@@H]1CN(C)S(C)(=O)=O	·	-4.1
CC1CCC/C=C2\C(=O)C=CC3OC(/C=C/C=C/C=C/C(=O)O)=C(C(=O)O1)C23 (stereo not drawn)	0.2	2.9
C[C@H](CO)N1C[C@H](C)[C@H](CN(C)Cc2ccncc2)Oc2c(NS(=O)(=O)c3ccc(Cl)cc3)cccc2C1=O	·	-1.1
O=C(CCN1C(=O)c2ccccc2C1=O)Oc1ccc2c3c(c(=O)oc2c1)CCC3	-0.2	4.9
COC(=O)Nc1ccc(S(=O)(=O)N(C)C)cc1	-0.1	3.5
C[C@H]1CN([C@@H](C)CO)C(=O)c2cc(NS(=O)(=O)c3ccccc3)ccc2O[C@@H]1CN(C)S(=O)(=O)c1ccc(Cl)cc1	-0.6	2.6
COC(=O)c1cc(O)cc(O)c1C(=O)c1c(O)c(Cl)c(C)c(Cl)c1OC	0.3	0.6
CCOC(=O)N1CCC(NC(=O)Cn2ncc3c4ccccc4n(C)c3c2=O)CC1	0.3	-8.8
CCOC(=O)c1sc(SC)c2c1CCc1conc1-2	-0.1	-1.5
C[C@H](CO)N1C[C@H](C)[C@@H](CN(C)S(C)(=O)=O)Oc2ccc(NS(=O)(=O)c3ccc(F)cc3)cc2C1=O	-0.5	-3.6
C[C@@H]1CN([C@H](C)CO)C(=O)c2cc(NC(=O)Cn3cnnn3)ccc2O[C@H]1CN(C)Cc1ccncc1	0.2	-3.5
C[C@H](CO)N1C[C@H](C)[C@@H](CN(C)CC2CCCCC2)Oc2c(NC(=O)c3cnccn3)cccc2C1=O	·	-5.5
CC1CCCN(C(=O)Cc2cn(Cc3cccc(Cl)c3)c3ccccc23)C1 (stereo not drawn)	·	3.2
O=C(NCCC1=CCCCC1)C1CCC(CNS(=O)(=O)c2ccccc2)CC1 (stereo not drawn)	-0.8	5.2
COc1ccc2cc3c(N)nn(C(=O)c4ccncc4)c3nc2c1	·	-3.7
Cc1ccc(S(=O)(=O)Nc2cccc3c2O[C@@H](CN(C)Cc2ccc(Cl)c(Cl)c2)[C@@H](C)CN([C@H](C)CO)C3=O)cc1	·	-4.1
C[C@H](CO)N1C[C@H](C)[C@@H](CN(C)C(=O)NC2CCCCC2)Oc2c(NC(=O)C3CCCCC3)cccc2C1=O	·	-5.9
Cc1noc(C)c1S(=O)(=O)Nc1ccc2c(c1)C(=O)N([C@@H](C)CO)C[C@H](C)[C@H](CN(C)Cc1ccc(C(=O)O)cc1)O2	0.7	-4.7
COc1ccc(NC(=O)N(C)C[C@H]2Oc3ccc(NS(=O)(=O)c4ccc(Cl)cc4)cc3C(=O)N([C@H](C)CO)C[C@@H]2C)cc1	0.0	-0.1
O=C(CNC(=O)c1ccccc1F)NCc1ccco1	-0.6	-3.7
C[C@@H]1CN([C@@H](C)CO)C(=O)c2cccc(NC(=O)C3CCOCC3)c2O[C@@H]1CN(C)Cc1ccncc1	·	-0.6
c1csc(-c2nnc(N3CCCCCC3)c3ccccc23)c1	-0.8	-2.2
CC(C)CCNC(=O)Oc1ccccc1	-1.4	12.4
Cc1noc(C)c1S(=O)(=O)Nc1cccc2c1O[C@@H](CN(C)S(=O)(=O)c1ccc(F)cc1)[C@@H](C)CN([C@H](C)CO)C2=O	·	-1.7
CCN(C(=O)c1cc2c(-c3ccc(Cl)cc3)nn(C)c2s1)c1cccc(Cl)c1	·	-8.5
O=S(=O)(Nc1ccccc1N1CCOCC1)c1ccc(-c2ccccn2)s1	-0.5	5.7
CN1CCN(c2ccc(CNC(=O)c3ccc4c(c3)OCCO4)cc2)CC1	0.5	3.2
C[C@H]1CN([C@@H](C)CO)C(=O)c2cccc(NS(=O)(=O)c3cn(C)cn3)c2O[C@H]1CN(C)S(=O)(=O)c1cn(C)cn1	·	0.5

Looked up one by one from the entries so far:
SMILES	A1 inhib	BJeLR viab HTS
CN1CCN(c2ccc(CNC(=O)c3ccc4c(c3)OCCO4)cc2)CC1	0.5	3.2
COc1ccc(S(=O)(=O)Nc2ccc3c(c2)C(=O)N([C@H](C)CO)C[C@@H](C)[C@H](CN(C)CC2CCCCC2)O3)cc1	-0.8	-1.2
C[C@H]1CN([C@@H](C)CO)C(=O)c2cccc(NS(=O)(=O)c3cn(C)cn3)c2O[C@H]1CN(C)S(=O)(=O)c1cn(C)cn1	·	0.5

The list continues:
SMILES	A1 inhib	BJeLR viab HTS
CC(C)(C)NC(=O)c1ccccc1SCc1ccc(F)cc1	-0.6	0.5
Cc1cc(C)c(S(=O)(=O)N2CCN(Cc3ccc4c(c3)OCO4)CC2)c(C)c1	·	-6.6
CCn1ccc(C(=O)Nc2ccccc2Cl)n1	·	1.2
COc1ccc(NC(=O)Nc2cccc3c2O[C@@H](CN(C)S(=O)(=O)c2ccc(OC)cc2)[C@H](C)CN([C@H](C)CO)C3=O)cc1	·	-3.5
C[C@@H]1CN([C@@H](C)CO)C(=O)c2cc(NC(=O)CCC(F)(F)F)ccc2O[C@@H]1CN(C)Cc1ccc(Oc2ccccc2)cc1	1.5	4.6
CNC[C@H]1Oc2ccc(NC(=O)Nc3ccccc3)cc2C(=O)N([C@@H](C)CO)C[C@H]1C	-1.2	-1.3
CCOC(=O)c1nc(N)c(=O)n(-c2ccc(Cl)cc2)n1	1.4	-3.5
COc1ccc(CCn2c(=S)[nH]c3c(sc4ccccc43)c2=O)cc1OC	-0.8	0.8
C[C@H](CO)N1C[C@H](C)[C@H](CN(C)S(=O)(=O)c2ccc(Cl)cc2)Oc2c(NC(=O)c3nc4ccccc4s3)cccc2C1=O	·	-5.1
COc1ccc(NC(=O)Nc2ccc3c(c2)C(=O)N([C@H](C)CO)C[C@@H](C)[C@@H](CN(C)C(=O)Nc2cccc4ccccc24)O3)cc1	0.7	-4.7
CNC[C@H]1Oc2ccc(NC(=O)C3CCCCC3)cc2C(=O)N([C@H](C)CO)C[C@@H]1C	0.1	0.3
C[C@H]1CN([C@@H](C)CO)C(=O)c2cccc(NS(C)(=O)=O)c2O[C@H]1CN(C)S(=O)(=O)c1ccc(Cl)cc1	·	2.5
CCOc1cc(/C=C2\Sc3ccccc3C2=O)cc(I)c1O	0.4	1.3
CCOc1ccc(S(=O)(=O)NCc2ccccc2)cc1-c1nc2c(C(C)(C)C)nn(C)c2c(=O)[nH]1	-0.5	-3.0
C[C@@H]1CN([C@@H](C)CO)C(=O)c2cccc(NC(=O)Nc3ccc(C(F)(F)F)cc3)c2O[C@@H]1CN(C)Cc1ccc2c(c1)OCO2	·	4.9
O=C(O)C(Cc1ccsc1)c1ccccc1 (stereo not drawn)	-0.7	-2.0
C[C@H](CO)N1C[C@H](C)[C@@H](CN(C)S(C)(=O)=O)Oc2ccc(NC(=O)Nc3ccccc3)cc2C1=O	0.4	-0.5
CC(=O)Oc1cc2c(C(=O)N3CCCC3)c(C)oc2c2ccccc12	0.8	0.6
O=C(CC(=O)c1ccccc1)Nc1cc(C(F)(F)F)ccc1Cl	-0.2	5.4
O=C1/C(=C/c2ccco2)N=C(c2ccccc2)N1/N=C/c1ccc(F)cc1	-0.6	-0.2
C[C@H]1CN([C@@H](C)CO)C(=O)c2cc(NC(=O)Nc3ccc4c(c3)OCO4)ccc2O[C@H]1CN(C)Cc1ccncc1	0.7	1.7
CC(C)=CCc1cc(O[C@@H]2O[C@H](CO)[C@@H](O)[C@H](O)[C@H]2O)cc(CC=C(C)C)c1C(O)C(=O)O (stereo partly drawn)	0.2	-2.4
C[C@H]1CN([C@@H](C)CO)C(=O)c2cccc(NC(=O)Nc3ccc4c(c3)OCO4)c2O[C@@H]1CN(C)C(=O)Nc1cccc2ccccc12	·	2.2
O=C(NCCc1ccccc1)c1csc2c1CCCCC2	·	3.3
C[C@@H]1CN([C@@H](C)CO)C(=O)c2cccc(NS(=O)(=O)c3cn(C)cn3)c2O[C@H]1CN(C)Cc1ccc(-c2ccccc2)cc1	·	10.7
NC(=S)Cc1c(Cl)sc2ccc(Cl)cc12	-0.2	3.2
c1ccc(CSc2nc3ccccc3n3cnnc23)cc1	·	1.1
O=C(c1ccc2nsnc2c1)N(Cc1ccccn1)Cc1ccccn1	0.3	-4.4
CC(C)(C)c1cc2nc(C(F)(F)F)cc(Sc3ccccc3)n2n1	-0.5	0.1
O=C(c1cnn(-c2ccccc2)c1-n1cccc1)N1CCc2ccccc21	-0.3	-4.5
Cc1ccc(C)c(S(=O)(=O)Nc2ccc3oc4c(c3c2)CC(C(C)(C)C)CC4)c1 (stereo not drawn)	-1.0	2.6
Cc1cccc(C(=O)N2CCN(c3ccc(N4CCOCC4)nn3)CC2)c1	·	-3.0
CCc1ccccc1N(CC)C(=O)Cn1ncc2c1-c1ccccc1OC2	-0.4	-4.8
CCOC(=O)N1CCN(C(=O)CNC(=S)N(Cc2cccs2)C2CCCCC2)CC1	0.5	-2.5
CC(C)NCC(O)c1ccc(NS(C)(=O)=O)cc1 (stereo not drawn)	-0.2	1.8
C[C@@H]1CN([C@H](C)CO)C(=O)c2cccc(NC(=O)Nc3ccc4c(c3)OCO4)c2O[C@@H]1CN(C)CC1CCCCC1	·	-2.8
Cc1cccc(NC(=O)C(C)C)c1	0.7	4.5
CCN(CC)c1ccc(NC(=O)C2CCCCC2)c(N(CC)CC)n1	-0.9	4.5
C[C@@H]1CN([C@H](C)CO)C(=O)c2cc(NS(=O)(=O)c3cn(C)cn3)ccc2O[C@@H]1CN(C)C(=O)Nc1ccc2c(c1)OCO2	1.2	-0.8
COC(=O)COc1ccc2c(C)c(C)c(=O)oc2c1	0.8	-3.9
N#CC(=C1CCCC1)c1nc(-c2cc3ccccc3oc2=O)cs1	-1.6	12.1
C[C@@H]1CN([C@@H](C)CO)C(=O)c2cc(NC(=O)CCCCCC(=O)Nc3ccccc3N)ccc2O[C@H]1CN(C)C	·	3.2
COc1ccc(NC(=O)Nc2ccc3c(c2)C(=O)N([C@H](C)CO)C[C@@H](C)[C@H](CN(C)Cc2ccc(C(=O)O)cc2)O3)cc1	0.8	1.6
C[C@H]1CN([C@@H](C)CO)C(=O)c2cc(NS(=O)(=O)c3ccc(Cl)cc3)ccc2O[C@H]1CN(C)C(=O)Nc1ccc(C(F)(F)F)cc1	-0.4	0.7
CCN(CC)C(=O)N1CCN(CCC#N)CC1	-0.5	5.1
CC(=O)[C@H]1CC[C@H]2[C@@H]3C=CC4=CC(=O)CC[C@@]4(C)[C@@H]3CC[C@]12C	0.1	2.2
O=c1cc(-c2ccccc2)oc2cccc(O)c12	-1.6	-6.2
CCC(C)(C(=O)NC1CCCCC1)N(C)C(=O)Cc1cccs1 (stereo not drawn)	·	0.3
CC(C)(C)OC(=O)NC1CCN(C(=O)CSCC(=O)O)CC1	0.6	0.7
COc1cccc2oc(-c3ccccc3)c(Br)c12	-1.4	9.1
Cc1nc2c3ccccc3n(CC(=O)c3ccc(Br)cc3)c(=O)n2n1	0.4	-2.4
CCCCN1C2=NC3C=CC=CN3C(=O)C2=CC(C(=O)OCC)C1=NC(=O)C(C)(C)C (stereo not drawn)	·	-1.1

Compound activity (PubChem)
